# MLL AF4-AF9 inh: blocks AF4 peptide binding to human AF9. hit rate 0.47% among 350,000. AlphaScreen, biotin-AF4 peptide binding to FLAG-AF9. AID 651704. P42568. inhibition, % at 10 µM;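 active = every replicate reaching a set inhibition limit, whatever the replicate mean, cut at about 25% in these data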;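 note: 0% = plate neutral control median and 100% = total signal loss; the record names both 10 and 1 µM as test concentration; the first replicate is given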
# Target sequence (P42568 whole entry, looked up): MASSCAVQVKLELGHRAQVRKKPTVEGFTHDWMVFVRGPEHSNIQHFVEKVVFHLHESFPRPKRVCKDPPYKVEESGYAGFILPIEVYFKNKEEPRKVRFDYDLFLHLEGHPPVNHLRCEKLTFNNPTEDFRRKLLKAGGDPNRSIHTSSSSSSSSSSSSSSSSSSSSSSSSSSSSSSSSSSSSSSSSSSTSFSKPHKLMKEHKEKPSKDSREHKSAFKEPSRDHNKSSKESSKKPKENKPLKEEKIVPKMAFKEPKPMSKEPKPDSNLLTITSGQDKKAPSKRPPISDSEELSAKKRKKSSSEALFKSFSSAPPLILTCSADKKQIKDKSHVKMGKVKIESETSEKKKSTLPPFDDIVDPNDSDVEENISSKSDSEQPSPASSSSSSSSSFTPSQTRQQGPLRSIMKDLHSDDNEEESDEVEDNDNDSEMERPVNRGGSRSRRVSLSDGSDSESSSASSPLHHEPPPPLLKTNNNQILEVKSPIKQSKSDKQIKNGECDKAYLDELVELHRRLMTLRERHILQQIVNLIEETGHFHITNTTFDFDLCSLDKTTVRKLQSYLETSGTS
# rRNA inh HTS: inhibitors of bacterial rRNA selective over humanized ribosomes | E. coli WT GFP vs humanized-ribosome RFP mutants, fluorescence, 24 h; active compounds read low; DMSO median 0, no signal -100 | GFP signal change (wild-type ribosome), % (concentration not given with the values) | hit rate 1.6% among 350,000 | AID 720706;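 active = significant combined selectivity score with lowered wild-type GFP, culture density cut under 30%, mutant RFP and density less affected; inactive = any of these conditions unmet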; note: one replicate is shown; some compounds called inactive have numbers as strong as hits
# FGF22 binding: shifts melting point of recombinant human FGF22; Q9HCT0; recombinant FGF22 thermal shift, SYPRO orange fluorescence; percent of sucrose octasulfate shift, DMSO zero; calls only at 9.99 µM; hit rate 1.5% among 340,000;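 active = melting point raised past a set limit in the mean and every replicate; three in four hits are not shown here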
# Target sequence (Q9HCT0 whole entry, looked up): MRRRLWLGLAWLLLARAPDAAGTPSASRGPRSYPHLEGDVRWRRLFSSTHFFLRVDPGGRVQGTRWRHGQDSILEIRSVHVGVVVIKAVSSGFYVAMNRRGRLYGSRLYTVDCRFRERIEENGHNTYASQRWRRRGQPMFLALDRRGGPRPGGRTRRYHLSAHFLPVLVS
# rRNA inh HTS OD600: second read-out of rRNA inh HTS, no call of its own (marks repeat the call); OD600 change, %; measured here: OD600 growth;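 optical density of the mix in the first replicate; 0 = DMSO median and -100 = no signal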
# rRNA inh HTS RFP: recorded beside rRNA inh HTS, whose call it bears; RFP signal change, %; measured here: RFP humanized mutant strains;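 first replicate; 0 = DMSO median and -100 = no signal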
# Active calls of the source: *; i = inactive; & = joins results of further samples. An excerpt; rates above refer to the full screens.
structure,MLL AF4-AF9 inh,rRNA inh HTS,rRNA inh HTS OD600,rRNA inh HTS RFP,FGF22 binding
CCC(=O)N1CCC2(CC1)CN(C(=O)Nc1ccccc1F)[C@@H](CO)c1[nH]c3cc(OC)ccc3c12,1.3,-1,-5,1.7,i
Cc1ccc(S(=O)(=O)Nc2ccc3c(c2)CC(=O)N([C@@H](C)CO)C[C@@H](C)[C@H](CN(C)Cc2ccc(C(=O)O)cc2)O3)cc1,-5.5,4,7,-1.7,i
Cc1ccc(S(=O)(=O)N(C)C)cc1NC(=O)c1cc(S(=O)(=O)N2CCCCC2)ccc1N1CCOCC1,0.9,-4,-14,-1.8,i
C[C@@H]1CN([C@H](C)CO)C(=O)Cc2cc(NC(=O)NC3CCCCC3)ccc2O[C@@H]1CN(C)C(=O)Nc1ccc2c(c1)OCO2,1.6,3,4,3.7,i
Cc1ccc(C(=O)NC2CC(C)(C)NC(C)(C)C2)cc1S(=O)(=O)N1CCOCC1,5.3,8,9,0.2,i
O=C(C[C@@H]1CC[C@@H]2[C@H](COC[C@H](O)CN2S(=O)(=O)c2cccc(Cl)c2)O1)Nc1ccccc1,0.6,-12,-21,-2.0,i
Cc1cc(=O)n2cn[nH]c2n1,6.9,16,11,-0.3,i
CCc1nc2ccc(C(=O)Nc3ccc4c(c3)OCC(=O)N4)cn2c1N(C)Cc1nccn1C,-4.6,-11,-3,9.0,i
C[C@@H]1CN([C@@H](C)CO)C(=O)c2cccc(NS(=O)(=O)c3cn(C)cn3)c2O[C@H]1CN(C)Cc1ccc(Oc2ccccc2)cc1,0.0,-2,-8,1.5,i
CC(=O)N1C(=O)/C(=C2\SC(=S)N(NS(=O)(=O)c3ccc(C)cc3)C2=O)c2ccccc21,-6.5,-13,-15,-1.1,i
COc1cc2c(cc1OC)C(=O)CCC2,1.6,3,3,-0.6,i
C[C@@H](NC(=O)C[C@@H]1CC[C@H]2[C@@H](COC[C@H](O)CN2C(=O)Nc2cc(Cl)cc(Cl)c2)O1)c1ccccc1,-0.2,-25,-36,16,i
O=C(CN1CCOCC1)N1CCCCN2[C@H](C1)[C@@H](c1ccc(C#Cc3ccccc3)cc1)[C@@H]2CO,-2.8,-1,-42,4.3,i
COc1cccc(-c2ccc([C@H]3[C@@H](C#N)N(C(=O)Cc4ccncc4)[C@@H]3CO)cc2)c1,0.0,-8,-5,0.2,i
O=C1c2ccccc2C(c2nnnn2-c2ccc3c(c2)OCCO3)N1Cc1ccco1 (configuration not stated),-0.6,1,-1,5.9,i
C[C@@H]1CN([C@H](C)CO)S(=O)(=O)c2ccc(-c3ccc(F)cc3)cc2O[C@H]1CN(C)Cc1ccccc1C(=O)O,5.2,-1,6,1.2,i
CCCN(C(=O)COC(=O)CCC(=O)c1ccccc1)c1c(N)n(Cc2ccccc2)c(=O)[nH]c1=O,-3.9,9,13,0.0,i
C[C@H]1CN([C@@H](C)CO)C(=O)c2cc(NS(=O)(=O)c3ccc(Cl)cc3)ccc2O[C@H]1CN(C)C(=O)Nc1ccc2c(c1)OCO2,3.0,3,-4,-0.7,i
C[C@@H]1CN([C@H](C)CO)C(=O)c2cc(NC(=O)Cc3cn(C)c4ccccc34)ccc2O[C@@H]1CN(C)S(=O)(=O)c1ccc(Cl)cc1,-13,-2,2,0.1,i
ONC(=NCc1ccccc1)c1ccccc1,-1.1,1,9,-0.2,i
C[C@@H]1CN([C@@H](C)CO)S(=O)(=O)c2ccc(-c3cccc(C#N)c3)cc2O[C@H]1CN(C)Cc1cccc(F)c1,0.4,-1,-2,1.2,i
CC(=O)N(C)C[C@H]1Oc2cc(-c3ccccc3C)ccc2S(=O)(=O)N([C@H](C)CO)C[C@H]1C,-2.1,-11,-17,-2.7,i
C[C@H](CO)N1C[C@H](C)[C@H](CN(C)S(=O)(=O)c2cn(C)cn2)Oc2c(NC(=O)c3nc4ccccc4s3)cccc2C1=O,0.9,-9,-25,2.5,i
C[C@H]1CN([C@@H](C)CO)C(=O)CCCn2cc(nn2)CO[C@@H]1CN(C)S(C)(=O)=O,-0.1&0.8,7&2,15&4,-0.3&-5.5,i
C[C@H](CO)N1C[C@H](C)[C@H](CN(C)S(=O)(=O)c2ccc(Cl)cc2)Oc2ccc(NS(=O)(=O)c3ccc(F)cc3)cc2C1=O,3.4,-3,-13,0.5,i
O=C(NCC[C@H]1CC[C@H](NC(=O)C2CCCC2)[C@@H](CO)O1)c1ccc(F)cc1,-0.2,-2,0,-0.1,i
O=C(C[C@H]1CC[C@@H](NC(=O)Nc2cccc(F)c2)[C@H](CO)O1)NCC1CC1,-2.6,2,-1,3.3,i
COc1cccc(S(=O)(=O)N[C@@H]2C=C[C@@H](CC(=O)NCc3ccc(F)cc3)O[C@H]2CO)c1,-1.4,-2,1,2.2,i
O=C(N[C@H]1CC[C@H](CCn2cc(-c3ccccn3)nn2)O[C@@H]1CO)c1cccnc1,-0.2,-1,-2,-3.0,i
Cc1ccc(S(=O)(=O)N(C)C[C@H]2Oc3ncc(C#CC4(O)CCCC4)cc3C(=O)N([C@@H](C)CO)C[C@@H]2C)cc1,-0.2,0,3,1.2,i

# Reprinted at random: 5 compounds from above
structure,MLL AF4-AF9 inh,rRNA inh HTS,rRNA inh HTS OD600,rRNA inh HTS RFP,FGF22 binding
COc1cccc(S(=O)(=O)N[C@@H]2C=C[C@@H](CC(=O)NCc3ccc(F)cc3)O[C@H]2CO)c1,-1.4,-2,1,2.2,i
CCCN(C(=O)COC(=O)CCC(=O)c1ccccc1)c1c(N)n(Cc2ccccc2)c(=O)[nH]c1=O,-3.9,9,13,0.0,i
CC(=O)N1C(=O)/C(=C2\SC(=S)N(NS(=O)(=O)c3ccc(C)cc3)C2=O)c2ccccc21,-6.5,-13,-15,-1.1,i
O=C(CN1CCOCC1)N1CCCCN2[C@H](C1)[C@@H](c1ccc(C#Cc3ccccc3)cc1)[C@@H]2CO,-2.8,-1,-42,4.3,i
C[C@H]1CN([C@@H](C)CO)C(=O)c2cc(NS(=O)(=O)c3ccc(Cl)cc3)ccc2O[C@H]1CN(C)C(=O)Nc1ccc2c(c1)OCO2,3.0,3,-4,-0.7,i

# (list continues)
structure,MLL AF4-AF9 inh,rRNA inh HTS,rRNA inh HTS OD600,rRNA inh HTS RFP,FGF22 binding
C[C@@H]1CN([C@@H](C)CO)C(=O)c2c(c3ccccc3n2C)-c2ccccc2CO[C@@H]1CN(C)S(=O)(=O)c1ccc([N+](=O)[O-])cc1,3.2,1,7,-0.6,i
C[C@@H]1CN([C@H](C)CO)C(=O)c2cccc(NS(=O)(=O)c3ccccc3)c2O[C@@H]1CN(C)CC1CC1,0.9,1,4,-0.2,i
C[C@H]1CN([C@@H](C)CO)C(=O)c2cc(-c3ccccc3)cnc2O[C@H]1CN(C)Cc1cccnc1,-4.1,5,19,-5.0,i
CCNC(=O)[C@H]1[C@H](CO)[C@H]2Cn3c(ccc(/C=C/c4ccccc4)c3=O)[C@H]2N1C(C)=O,0.8,-1,5,0.1,i
C[C@@H]1CN([C@@H](C)CO)C(=O)c2cc(-c3ccc(F)cc3)cnc2O[C@H]1CN(C)C(=O)Cc1ccccc1,-2.2,-8,-6,0.3,i
C[C@@H]1CN([C@H](C)CO)C(=O)Cc2cc(NC(=O)CCCCCC(=O)Nc3ccccc3N)ccc2O[C@H]1CN(C)Cc1ccc(Oc2ccccc2)cc1,-0.8,-5,-8,0.9,i
CC1(C)OC(=O)C2=C(CC(CCc3ccccc3)OC2c2ccccc2)O1 (configuration not stated),-2.2,-28,-20,-12,i
CCCCS(=O)(=O)N1C2=NC(C(=O)OCC)=C(C(=O)OCC)C3N(Cc4ccc(Br)cc4)c4ccccc4[C@]23C[C@H]1C(=O)OC (some centres not stated),-1.4,3,10,-5.0,i
CCCc1nc2ccc(C)cn2c1Cc1ccccc1C(F)(F)F,4.9,-8,-30,-4.3,i
CC1c2ccccc2N(S(=O)(=O)c2ccccc2)C1C (configuration not stated),-6.2,-29,-53,-9.5,i
CN(c1ccc(F)cc1)S(=O)(=O)c1ccc(Cl)c(C(=O)NCC2(N3CCOCC3)CCCCC2)c1,-5.1,-5,-59,-6.0,i
C[C@H](CO)N1C[C@H](C)[C@@H](CN(C)S(=O)(=O)c2cccs2)OCCCC[C@H](C)Oc2ccc(NC(=O)Nc3ccc(C(F)(F)F)cc3)cc2C1=O,-0.7,5,8,1.8,i
CCCN(C)C[C@H]1OCCCC[C@@H](C)Oc2ccc(NC(=O)Cc3ccccc3)cc2C(=O)N([C@H](C)CO)C[C@H]1C,3.1,4,-7,1.0,i
C[C@@H]1CN([C@H](C)CO)C(=O)c2cc(NC(=O)Nc3ccccc3)ccc2O[C@@H](C)CCCCO[C@H]1CN(C)Cc1ccc(C(=O)O)cc1,0.3,1,6,0.0,i
CCCCCCCCCc1conc1C(=O)/C=C/c1oc2c(c1C)CCC(C)C2 (configuration not stated),-1.0,7,-2,3.9,i
C[C@H](CO)N1C[C@H](C)[C@H](CN(C)C(=O)c2ccccc2)OCCCC[C@H](C)Oc2ccc(NC(=O)NC3CCCCC3)cc2C1=O,-0.6,0,-4,0.2,i
C[C@@H]1CN([C@@H](C)CO)C(=O)Cc2cc(NC(=O)CCCN(C)C)ccc2O[C@@H]1CN(C)S(=O)(=O)c1ccc(F)cc1,-1.5,1,12,-1.1,i
Cc1ccc(S(=O)(=O)Nc2ccc3c(c2)C(=O)N([C@H](C)CO)C[C@H](C)[C@@H](CN(C)C(=O)Nc2ccc(F)cc2)OCCCC[C@@H](C)O3)cc1,-0.5,0,-1,-1.5,i
COc1ccc(S(=O)(=O)N[C@H]2C=C[C@H](CC(=O)N3CCN(c4ccccc4)CC3)O[C@H]2CO)cc1,-1.9,1,14,-1.0,i
CC=Cc1ccc2n(c1=O)C[C@@H]1[C@@H](CO)[C@H](C(=O)NCC)N(Cc3nccs3)[C@H]21 (mixture of isomers),-2.8,3,4,1.6,i
COCC(=O)Nc1ccc2c(c1)C(=O)N(C)C[C@@H](OC)[C@@H](C)CN(C(=O)C1CCCC1)[C@@H](C)CO2,-0.7,-1,1,-1.8,i
O=C(C[C@H]1CC[C@H]2[C@@H](COC[C@@H](O)CN2S(=O)(=O)c2ccc(Cl)cc2)O1)NCc1ccc(Cl)c(Cl)c1,-1.5,-48,-72,-4.3,i
CC(=O)Nc1ccc(-c2ccnc3c2CC(C)(C(=O)Nc2ccc(C(C)C)cc2)O3)cc1 (configuration not stated),1.6,-2,-20,6.0,i
CC(C)NC(=O)N(C)C[C@@H]1Oc2ccc(NC(=O)CCN3CCOCC3)cc2C(=O)N([C@@H](C)CO)C[C@H]1C,-13,4,5,1.9,i
Cc1cc(C(=O)Nc2cccc3c2O[C@H](CN(C)CC2CCCCC2)[C@@H](C)CN([C@H](C)CO)C3=O)n(C)n1,-15,-3,6,-1.2,i
CCCNC(=O)N1[C@H](CO)[C@H](c2ccc(-c3cccnc3)cc2)[C@@H]1C#N,-1.0,4,20,-1.2,i
C/C=C/c1ccc2c(c1)O[C@H](CN(C)C(=O)c1ccccc1)[C@H](C)CN([C@H](C)CO)S2(=O)=O,3.1,-2,-1,-0.2,i
COc1ccc(NC(=O)N(C)C[C@H]2OCc3ccccc3-c3c(n(C)c4ccccc34)C(=O)N([C@H](C)CO)C[C@@H]2C)c(OC)c1,14,-5,-7,11,i
COc1ccc2c3c(n(C)c2c1)[C@@H](CO)N(C(=O)Nc1ccc(F)cc1)CC31CN(Cc2cccnc2)C1,27*,4,-8,7.2,i
COCC(=O)N1CC2(C1)CN(Cc1ccccc1F)[C@H](CO)c1[nH]c3cc(OC)ccc3c12,-0.3,-3,5,0.3,i

# Further structures follow.
structure,MLL AF4-AF9 inh,rRNA inh HTS,rRNA inh HTS OD600,rRNA inh HTS RFP,FGF22 binding
C[C@@H]1CN([C@@H](C)CO)C(=O)c2cc(C#C[C@@H](C)O)cnc2O[C@@H]1CN(C)Cc1cncnc1,-1.3,0,7,-3.7,i
COc1ccc(C#Cc2cnc3c(c2)C(=O)N([C@@H](C)CO)C[C@H](C)[C@H](CN(C)C(=O)CC2CC2)O3)cc1,-1.0,-3,-12,5.0,i
Cc1ccc(-c2ccc3c(c2)O[C@@H](CN(C)Cc2cccnc2)[C@H](C)CN([C@@H](C)CO)S3(=O)=O)cc1,3.4,-17,-18,-0.8,i
COc1cc(CNc2ncnc3c2ncn3[C@H]2CN(Cc3ccccc3)C[C@@H](COC(C)=O)O2)cc(OC)c1OC,-0.2,2,-9,0.4,i
C[C@H]1CCCCO[C@H](CN(C)Cc2ccncc2)[C@@H](C)CN([C@@H](C)CO)C(=O)c2cc(NC(=O)CCC(F)(F)F)ccc2O1,0.6,-1,-1,0.6,i
Cc1ccc(S(=O)(=O)Nc2cccc3c2O[C@H](CN(C)S(=O)(=O)c2ccc(Cl)cc2)[C@@H](C)CN([C@H](C)CO)C3=O)cc1,-2.7,3,-2,-0.1,i
O=C1NC[C@@H](CCCCN2C[C@H](Cc3ccccc3)N(CC3CCCCC3)C(=O)C2=O)N(CCc2ccccc2)C1=O,-0.7,-44,-71,-2.2,i

# Screening data (PubChem)
